Env fusion inh = blocks HIV Env-driven cell-cell fusion; HeLa-JRFL Env/CEM21 cell fusion, luciferase; inhibition, % at 12.3 µM; hit rate 1.1% among 360,000; AID 651610;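 active means mean replicate inhibition score of at least 50 and every replicate individually at or above 50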;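 further: 0% = plate neutral controls and 100% = maraviroc near 300 nM; one replicate is shown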
PABP FP inh = blocks human PABP binding to poly(A) RNA. P11940. fluorescence polarization. inhibition, % at 35 µM. hit rate 1% among 290,000. AID 2014;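 active means 50% or more with normal probe brightness, or confirmed in later tests; about a fifth of its hits are not listed in these tables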;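 further: calls also rest on retests at 20 µM and on dose response follow-up; controls were probe without protein and protein plus probe with vehicle; some compounds called inactive have numbers as strong as hits; many hits fall short of the cut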
Rce1 inh = yeast Ras-converting enzyme inhibition; calls only; hit rate 0.27% among 290,000; Q03530; AID 2563; yeast membranes, quenched prenylated peptide cleavage fluorescence;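 active means fall in fluorescence gain of 50% or more versus controls, with final raw signal at or below 3038400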;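 further: plate controls were neutral control wells for no effect and wells lacking membranes for full effect; tested at 10 µM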
Target sequence (Q03530 whole entry, looked up): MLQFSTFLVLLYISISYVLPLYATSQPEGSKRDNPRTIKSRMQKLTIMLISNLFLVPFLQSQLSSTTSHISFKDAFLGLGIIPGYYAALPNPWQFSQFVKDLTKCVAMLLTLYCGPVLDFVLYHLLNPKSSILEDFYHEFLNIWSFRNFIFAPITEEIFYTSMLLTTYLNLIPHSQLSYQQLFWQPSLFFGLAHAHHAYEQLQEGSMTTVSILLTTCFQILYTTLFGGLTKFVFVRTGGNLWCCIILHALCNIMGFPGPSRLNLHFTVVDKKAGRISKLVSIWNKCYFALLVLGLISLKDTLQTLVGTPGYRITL
MT1-MMP act inh = MT1-MMP (human) activation inhibition; P50281; HT1080 RFP-PRO-GFP cells, GFP/RFP ratio fluorescence, overnight; percent of plate control window, DMSO zero; GFP/RFP ratio change, % at 20 µM; hit rate 0.061% among 360,000; AID 651647;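 active means GFP/RFP ratio change of at least 30% with cell ATP level not reduced by more than half and red fluorescence within 50% of control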; further: strong numbers were not always called active
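Material – HT1080 RFP-PRO-GFP cells · Control set – DMSO wells and RFP-L50D-GFP cells · Incubation – overnight cell settling, then overnight compound exposure, 37 °C, 5% CO2 · Compound dosing – single-point 20 µM compound, 1% DMSO · Read-out – GFP/RFP fluorescence ratio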
UUG fidelity = modulators of start codon recognition fidelity in yeast | S. cerevisiae UUG-firefly luciferase reporter, luminescence/redox ratio | activity score, % at 18.7 µM | hit rate 0.13% among 350,000 | AID 602363;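 active means replicate mean at a twofold rise or more, about +100% in these data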;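 further: firefly luciferase made from a UUG start codon reports start codon fidelity; reporter light over untreated wells divided by growth signal over untreated wells; some hits fall short of that in this replicate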
eIF4H FP inh = inhibitors of RNA binding by human eIF4H; Q15056; inhibition, % at 35 µM; eIF4H fluorescence polarization binding assay; hit rate 0.94% among 290,000;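 active means 50% or more with normal probe brightness, or confirmed in later tests; about a fifth of its hits are not listed in these tables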;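 further: calls also rest on retests at 20 µM and on dose response follow-up; 0% = protein and probe with vehicle and 100% = probe without protein; strong numbers were not always called active; many hits fall short of the cut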
CSC inhib = blocks cancer stem cells; hit rate 1.1% among 300,000; cancer stem cell-like cells viability, luminescence; inhibition, % at 7.5 µM; AID 2717;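 active means mean at 75% or more and at least half the replicates too; tested in HMLE shEcad cells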;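 further: 0% = median of negative and 100% = median of positive control wells; the first replicate is given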
eIF4H FP inh retest = recorded beside eIF4H FP inh, whose call it bears; inhibition, %; compound at 20 µM; confirmation average;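 mean of two retest wells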
PABP FP inh retest = second read-out of PABP FP inh, no call of its own (marks repeat the call); inhibition, %; compound at 20 µM; confirmation repeats;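 mean of two retest wells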
MT1-MMP act inh RFP = second read-out of MT1-MMP act inh, no call of its own (marks repeat the call); RFP signal change, %; measured here: RFP expression control read;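 0 = vehicle wells; hits needed this value within 50% of zero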
The depositor's hits bear a star; i = inactive; . = no result given; & = joins results of further samples; ! = not active in a repeat.

SMILES	Env fusion inh	PABP FP inh	Rce1 inh	MT1-MMP act inh	MT1-MMP act inh RFP	UUG fidelity	eIF4H FP inh	CSC inhib	others
COC(=O)C1=C(C(=O)OC)[C@@H]2N(C)c3ccccc3[C@@]23C[C@@H](C(=O)OC)N(C(=O)c2ccc(Br)cc2)C3=N1	-22	1	i	3	3	7	-7	13
CCOC(=O)c1[nH]c(C)c(/C(O)=C2\C(=O)C(=O)N(CCCn3ccnc3)C2c2ccncc2)c1C (stereo unspecified)	.	0	i	1	4	-5	-10	-9
CCOc1ccccc1C=NNC(=O)C1CC1	3	.	.	-1	-3	-8	.	.
COc1ccc(C2=C(Nc3ccc(C)cc3)c3ccccc3C2=O)cc1	-7	5	i	-1	-2	.	7	-6
CC(=O)c1cc(CC(=O)N2CCc3c([nH]c4ccccc34)C2c2ccccn2)cs1 (stereo unspecified)	-3	2	i	-1	4	.	3	-3
COc1ccc(-c2nn(C)c(=O)c3ccccc23)cc1CNC(=O)NC1CCCCC1	.	86	i	.	.	.	-8	-1	eIF4H FP inh retest=-11;PABP FP inh retest=2
COC(=O)c1cccc(N2C(=O)C3CC=CCC3C2=O)c1 (stereo unspecified)	-4	7	i	2	6	-18	10	-6
CCCCc1ccccc1NC(=S)NC1CCCC1	-22	-5	i	0	0	-12	13	-5
Nc1ccc(N2CCN(C(=O)c3cccs3)CC2)cc1	.	-10	i	33*	31*	-11	-4	4
Cc1cccc(NC(=O)N2CCC(NC(=O)c3ccco3)CC2)c1	-2	-4	i	1	-2	.	6	6
NNC(=O)c1ccc(COc2ccc([N+](=O)[O-])cc2)o1	-2	-6	i	6	4	.	0	-10
CCCCOc1ccc(CSC(CC(=O)O)C(=O)O)cc1 (stereo unspecified)	.	12	i	-1	-1	-8	-8	-18
CN(C)c1ccc(NC(=O)CSc2nnc(C3CCCCC3)n2N)cc1	-5	-10	i	1	4	-5	-6	-8
CN(Cc1ccon1)C(=O)C1CCC(=O)N(Cc2ccc(Cl)cc2)C1 (stereo unspecified)	-3	1	i	-1	3	-9	-13	-1
CCN(CC)CCN(C(=O)c1cccc([N+](=O)[O-])c1)c1nc2ccc(OC)cc2s1	11	-7	i	-1	1	.	0	19
Cc1c(NC(=O)COc2ccccc2Cl)c(=O)n(-c2ccccc2)n1C	.	.	.	-1	2	-21	.	-3
COC(=O)c1ccc(C(=O)OC)c(NC(=S)N2CC(C)CC(C)C2)c1 (stereo unspecified)	19	-9	i	1	3	.	-4	-5
CCc1nnc(NC(=O)CN2CCN(c3ccccc3F)CC2)s1	5	35	i	-1	0	.	0	-15
COc1ccc(Cl)c(-c2cc(C(=O)NCc3ccc(C(F)(F)F)cc3)[nH]n2)c1	-28	.	.	5	-3	-12	.	.
C#CCNc1cc(-c2ccccc2)nc2ncnn12	-4	-5	i	3	4	.	-3	20
O=C(NCCC(=O)N(Cc1ccco1)Cc1cccs1)c1ccccc1Cl	1	.	.	-4	0	-13	.	.
CN(C)C(=O)c1c(NC(=O)c2ccccc2)sc2c1CCC2	-32	0	i	-1	-1	-15	4	-16
COc1ccccc1/C=C/C(=O)NCC(=O)N1CCC(N(C)C2CCCC2)CC1	11	12	i	-2	4	.	2	-15
Cc1nnc(NC(=O)c2ccccc2Br)s1	.	-5	i	2	-1	-12	-10	-4
CCCCc1cc(=O)oc2cc(OCC(=O)Nc3ccccn3)ccc12	3	10	i	4	0	-4	-9	4
Cc1nc2ccccn2c1/C(O)=C1\C(=O)C(=O)N(CCCn2ccnc2)C1c1ccncc1 (stereo unspecified)	.	44	i	-3	7	-6	63	-1	eIF4H FP inh retest=16;PABP FP inh retest=45
COC(=O)c1ccccc1NC(=O)Nc1ncccc1C	-30	-4	i	3	4	.	-4	-15
Cc1c(NC(=O)C(C)OC(=O)c2cccnc2)c(=O)n(-c2ccccc2)n1C (stereo unspecified)	-2	3	i	-3	-2	-29	-2	7
Cc1ccc(OCCN2C(=O)NC3(CCc4ccccc4C3)C2=O)cc1 (stereo unspecified)	4	-4	i	-1	2	.	-5	-10
COC(=O)c1cc(NC(=O)c2cc(-c3ccc(OC)cc3)oc2C(F)(F)F)ccc1N1CCOCC1	12	2	i	-1	-14	.	-5	39
CC1(C)CC(=O)C=C(C#CC2(O)CCCCC2)C1	37	.	.	1	-4	-30	.	.
COC(=O)c1cnc(Oc2ccc(NC(=O)NC(=O)c3c(F)cccc3F)cc2)cc1C(F)(F)F	18	8	i	0	-2	.	-10	5
CC1CCC(NS(=O)(=O)c2ccc(Cl)s2)CC1 (stereo unspecified)	14	.	.	4	2	11	.	.
CCOC(=O)c1sc(=S)n(-c2ccccc2OC)c1N	.	6	i	5	-1	.	6	-13
O=C(NCc1ccccn1)C1CCN(S(=O)(=O)c2ccccc2C(F)(F)F)CC1	-2	.	.	2	-1	-19	.	.
COC(=O)[C@]1(Cc2ccccc2)N[C@H](c2ccc(-c3ccc(OC)cc3)cc2)[C@@H]2C(=O)N(C)C(=O)[C@@H]21	-42	.	i	0	-2	-18	.	-2
O=C(NNC(=S)NCc1ccccc1)c1ccc(OC(F)F)cc1	-20	1	i	-7	2	-36	-2	4
COc1cc(N(C)C)c([N+](=O)[O-])cc1C(=O)N1CCN(Cc2ccccc2)CC1	46	5	i	6	-2	-19	-3	4
O=C(O)C1CC(=O)N(c2ccc(OCc3c(F)cccc3Cl)cc2)C1 (stereo unspecified)	.	-3	i	3	5	-18	-11	-2
O=C(CSc1nncc(=O)[nH]1)NC1CCCCC1	11	-1	i	1	-1	-12	-12	-13
COc1ccccc1/C=C1\C(=O)Nc2ccccc21	-9	1	i	-1	-15	-8	-10	-5
O=C1CCSc2ccc(Cl)cc2N1Cc1ccccc1	.	2	i	-3	-3	5	-3	-3
COc1cc(C=O)c(Br)cc1OC1CCCC1	.	10	i	-6	-4	6	-6	-4
O=c1cc(C(F)(F)F)[nH]c2c(OC(F)(F)F)cccc12	-43	1	i	5	-2	.	1	79*
CCCCC(=O)Nc1cccc(-c2ccc3nncn3n2)c1	7	2	i	5	3	-12	-9	-5
CCOP(=O)(OCC)C(Nc1cccc(C(F)(F)F)c1)c1ccc(C)cc1 (stereo unspecified)	.	-6	i	-16	-13	0	2	.
O=C(c1cnc2sccn2c1=O)N1CCN(c2ccccc2Cl)CC1	3	-3	i	0	3	-1	0	5
COc1ccc(N2C(=O)C(CC(=O)Nc3ccc(F)cc3)N(CCc3cccs3)C2=O)cc1 (stereo unspecified)	-7	-2	i	-3	2	.	-2	-9
O=C(CCN1C(=O)S/C(=C\c2ccc(F)cc2)C1=O)Nc1ccc(O)cc1C(=O)O	-7	3	i	-3	2	-21	-8	-17
CCN1CCN(C(c2cccs2)C(C)NC(=O)CC(C)C)CC1 (stereo unspecified)	-45	-5	i	-6	-2	-7	-8	1
CSc1ncccc1C(=O)OCC(=O)NCc1cccs1	6	.	.	0	3	-25	.	-1
CC1(C)Cc2nc(-c3ccccc3)nc(SCC(=O)N3CCCC3)c2CO1	10	-5	i	-3	1	3	-6	-5
O=C(CSc1nc2ccsc2c(=O)n1Cc1ccccc1)NCC1CCCO1 (stereo unspecified)	10	6	.	12	0	.	-3	5
C/C(=N\NC(=O)C(O)c1ccccc1)c1cccnc1 (stereo unspecified)	-4	5	i	-2	2	1	-2	-5
N#CC1(P(=O)(c2ccccc2)c2ccccc2)CCCC1	-6	11	i	-4	-1	-16	-2	-8
Cc1ccc(Oc2ccc(OCC(=O)Nc3ccncc3)cc2)cc1	43	.	.	11	-28	-14	.	36
COc1ccc(-n2ncc3c(=O)n(CC(=O)Nc4ccc(S(=O)(=O)N5CCOCC5)cc4)cnc32)cc1	.	-7	i	7	-6	-2	-5	-11
Cc1c(O)cccc1C(=O)N[C@@H](CSc1ccccc1)[C@H](O)CN1C[C@H]2CCCC[C@H]2C[C@H]1C(=O)NC(C)(C)C	-13&-6	-8	i	-12&-14	-11&-22	-14&-2	-5	78*!
COc1ccc(/C=C2/SC(=O)N(CC(=O)Nc3cc(C)on3)C2=O)cc1OC	.	-8	i	-1	4	-8	-17	-4
COc1ccc(NC(=O)C(CC(C)C)NC(=O)c2ccccc2C)cn1 (stereo unspecified)	-8	-6	i	1	3	2	-4	10

Following part
SMILES	Env fusion inh	PABP FP inh	Rce1 inh	MT1-MMP act inh	MT1-MMP act inh RFP	UUG fidelity	eIF4H FP inh	CSC inhib	others
Cn1c(CO)nc2c3ccccc3ccc21	-16	.	i	-3	0	.	.	6
Cn1c(N2CCC(C(N)=O)CC2)nc2c1c(=O)n(Cc1ccc(Cl)cc1)c(=O)n2C	-2	-2	i	2	-2	-7	-12	-12
O=C(NCCCN1CCOCC1)Nc1ccc(Cc2ccc(NC(=O)NCCCN3CCOCC3)cc2)cc1	3	6	i	4	6	.	-2	-22
CCN(CC)C(=O)c1ccc2c(=O)n(Cc3ccc4c(c3)OCO4)c(=S)[nH]c2c1	3	10	i	2	-10	-2	12	29
Cc1cccc(C)c1NC(=O)CN(C)CC(=O)N(C)CC(=O)Nc1ccccc1Br	-8	.	.	0	3	-4	.	-7
N#Cc1cccc(NCC(=O)Nc2ccc3c(c2)OCCO3)c1	-79	-4	i	1	0	-47	4	-1
COc1ccc2[nH]c(=O)c(CN(CCO)C(=O)c3ccccc3F)cc2c1	.	-1	i	-3	-2	4	5	-2
Cc1noc(C)c1NC(=O)N(C)C[C@H]1Oc2c(NC(=O)C3CCCCC3)cccc2C(=O)N([C@H](C)CO)C[C@@H]1C	-28	.	.	2	7	-7&-31	.	.
Cc1ccc(OCCNC(=O)c2ccccc2N)cc1	-22	17	i	1	4	-7	9	0
COc1ccc(C(=O)CCC(=O)NCc2cc(OC)cc(OC)c2)cc1	-2	8	i	-2	-1	-12	-7	-1
Cc1cc(C(=O)COC(=O)c2ccc(N)cc2)c(C)n1-c1c(C)n(C)n(-c2ccccc2)c1=O	9	6	i	0	5	.	15	.
Cc1ccc(S(=O)(=O)CCC(=O)OCc2nc(N)nc(Nc3ccccc3C)n2)cc1	6	.	i	0	-2	13	.	-12
O=C(CSc1nc2ccccc2c(=O)n1-c1ccccc1)N1CCCC1	-4	-18	i	0	4	-6	2	-8
Cc1ccc(N2C(=O)N3[C@H](c4ccc(F)cc4)[C@@H]4C(=O)N(C5CCCCC5)C(=O)[C@@H]4[C@]3(Cc3ccccc3)C2=O)cc1	56*	4	i	2	-4	-20	7	-14
COc1ccc(NS(=O)(=O)c2cccc(C(=O)NNC(=O)c3ccc(O)c(Cl)c3)c2)cc1	.	.	.	0	4	-17	.	-10
Cc1ccc2c(CN3CCN(Cc4ccccc4)CC3)cc(=O)oc2c1C	11	-15	i	-6	1	-9	0	-7
CCCCC(NC(C)=O)c1nc2ccccc2[nH]1 (stereo unspecified)	-14	-14	i	4	3	7	-10	-2
Cc1cccc(NC(=O)CSc2ncnc3nc[nH]c23)c1	.	0	i	0	-2	-20	-12	-12
Cc1cccc(CC(=O)N2CCN=C2SCc2ccc([N+](=O)[O-])cc2)c1	2	-4	i	8	7	.	-4	-1
CCN(C(=O)COC(=O)Cc1c[nH]c2ccccc12)c1c(N)n(Cc2ccccc2)c(=O)[nH]c1=O	-7	.	i	-4	1	-4	.	0

Fetched one by one from the list above, three records:
SMILES	Env fusion inh	PABP FP inh	Rce1 inh	MT1-MMP act inh	MT1-MMP act inh RFP	UUG fidelity	eIF4H FP inh	CSC inhib	others
CCCCC(NC(C)=O)c1nc2ccccc2[nH]1 (stereo unspecified)	-14	-14	i	4	3	7	-10	-2
Cc1ccc(OCCNC(=O)c2ccccc2N)cc1	-22	17	i	1	4	-7	9	0
Cc1ccc(N2C(=O)N3[C@H](c4ccc(F)cc4)[C@@H]4C(=O)N(C5CCCCC5)C(=O)[C@@H]4[C@]3(Cc3ccccc3)C2=O)cc1	56*	4	i	2	-4	-20	7	-14
